Assay outcomes as filed in PubChem BioAssay.
Measles inh: inhibitors of measles virus growth in infected cells; infected Vero cells, GFP fluorescence, 64 h; stronger effect = lower value; hit rate 0.1% among 33,000; z-score (concentration not given with the values); AID 745;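 active = z-score under -3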;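 also: score is relative to mean and SD of the compound wells of a plate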
An asterisk follows results filed as active. An excerpt, so the mix of outcomes need not match the whole.

Measles inh | molecule
-0.58 | COc1cc2c(cc1OC)C(C(=O)NCCCN1CCN(C)CC1)C(c1ccccc1F)N(C)C2=O (stereo not drawn)
-1.2 | O=C(CCNS(=O)(=O)c1ccc(Cl)cc1)NCc1ccccc1Cl
0.16 | CCc1n(CC)c2ccccc2[n+]1CC(O)COc1ccc(OC)cc1 (stereo not drawn)
-0.01 | CCOc1cc2c(cc1OCC)C1C(C(=O)N3CCN(c4cc(Cl)ccc4C)CC3)c3ccccc3C(=O)N1CC2 (stereo not drawn)
0.71 | O=C(CSc1nc2ccccc2c(=O)n1CCN1CCOCC1)c1ccccc1
-0.17 | CCOC(=O)Cn1c(=N)n(CCOc2cccc(C)c2)c2ccccc21
-0.4 | Cc1ccc(C(=O)Nc2sc3c(c2C#N)CCCC3)cc1S(=O)(=O)N1CCCCC1
-1.4 | CCOC(=O)C1=C(C)NC(C)=C(C(=O)OCC)C1c1ccccc1Cl
-0.47 | O=[N+]([O-])c1ccc(O)c(C=Nc2ccccc2-c2nc3ccccc3s2)c1
0.33 | CCCCSc1nc2c(c(=O)[nH]1)C1(CCCCC1)Cc1ccccc1-2
-1.1 | CCC1SC2=NC(C)=C(C(=O)OC(C)C)C(c3ccc(Br)cc3)N2C1=O (stereo not drawn)
-1.2 | COc1ccc(C2CC(C(F)(F)F)n3ncc(C(=O)Nc4ccccc4Cl)c3N2)cc1OC (stereo not drawn)
1.1 | O=C(NC1(C(F)(F)F)C(=O)Nc2c1c(=O)[nH]c(=O)n2-c1ccc(Cl)cc1)c1cccs1 (stereo not drawn)
0.04 | N#Cc1cccc(NC(=O)CCc2nc(-c3ccccc3F)no2)c1
0.6 | COc1cc2c(cc1OC)C(COc1ccc3c(C)cc(=O)oc3c1)N(C(=O)c1cc(Cl)ccc1OC)CC2 (stereo not drawn)
0.79 | COc1ccccc1CNC(=O)C1CCCN(S(=O)(=O)c2cccc3nsnc23)C1 (stereo not drawn)
-0.96 | COC(=O)c1ccccc1NC(=O)CSc1n[nH]c(CC(C)C)n1
-0.69 | CC(=O)Oc1ccc2c3c(c(=O)oc2c1C)CCCC3
0.51 | CCN1C(=O)c2cccc3c(NC(=O)c4ccc(S(=O)(=O)N5CCCCC5C)cc4)ccc1c23 (stereo not drawn)
-0.23 | CCCCN(C)Cc1c(O)ccc2c(=O)c(-c3ccc(OC)c(OC)c3)c(C(F)(F)F)oc12

Part of the list above, set out differently:
> N#Cc1cccc(NC(=O)CCc2nc(-c3ccccc3F)no2)c1
  Measles inh = 0.04
> COc1cc2c(cc1OC)C(COc1ccc3c(C)cc(=O)oc3c1)N(C(=O)c1cc(Cl)ccc1OC)CC2 (stereo not drawn)
  Measles inh = 0.6
> COc1ccccc1CNC(=O)C1CCCN(S(=O)(=O)c2cccc3nsnc23)C1 (stereo not drawn)
  Measles inh = 0.79
> COC(=O)c1ccccc1NC(=O)CSc1n[nH]c(CC(C)C)n1
  Measles inh = -0.96

Later entries
Measles inh | molecule
0.46 | Cc1ccc(C(=O)COC(=O)C2CCC(N3C(=O)C4CCCCC4C3=O)CC2)cc1C (stereo not drawn)
-0.57 | Cc1ccc(S(=O)(=O)NCc2ccc(C(=O)NC(C)C)cc2)cc1
-0.52 | Cc1nc2ccc(-c3nc4ccccc4o3)cc2[nH]1
1.2 | O=c1[nH]c2cc(Cl)cnc2[nH]1
1.9 | CCOC(=O)C(C)Sc1nc2c(c(=O)[nH]c(=O)n2C)n1C (stereo not drawn)
-0.28 | CCC1Oc2ccccc2N(CC(=O)NCCc2ccc(OC)c(OC)c2)C1=O (stereo not drawn)
0.03 | O=C1C2C(c3ccc(Br)cc3)OC3(C(=O)c4ccccc4C3=O)C2C(=O)N1c1ccccc1C(F)(F)F (stereo not drawn)
0.06 | CC1CCN(c2nc(-c3cccs3)cc(C(F)(F)F)n2)CC1
1.1 | COC(=O)C1=C(NC(=O)c2ccc(OC)cc2OC)CCS1
-0.13 | CCOc1ccccc1C1Oc2nc(SC)nnc2-c2ccccc2N1C(C)=O (stereo not drawn)
-0.44 | CCCCc1ccc(C2C3=C(CC(C)(C)CC3=O)NC3=C2C(=O)c2ccccc23)cc1 (stereo not drawn)
0.2 | CN1c2ccccc2N(C)C1c1ccc(F)cc1
-0.96 | O=C(Cc1ccccc1)Nc1sc2c(c1C(=O)Nc1cccc3ccccc13)CCC2
0.57 | Cc1nnc(NC(=O)c2ccco2)s1
0.59 | O=C(O)CC(c1ccccc1)c1ccco1 (stereo not drawn)
-1.8 | CC(C)c1ccc(C(Nc2ccccn2)c2ccc3cccnc3c2O)cc1 (stereo not drawn)
-1.7 | CCOc1ccc(C2C(C(=O)Nc3cccc(C)n3)=C(C)NC3=C2C(=O)CC(C)(C)C3)cc1 (stereo not drawn)
-0.12 | Cc1cc(C)cc(OCC(=O)Nc2nc(C)cc(C)n2)c1
-0.58 | Cc1nnc(SCC(=O)Nc2ncc(C(F)(F)F)cc2Cl)s1
1.8 | COc1ccc(N2CCN(C(=O)CCS(=O)(=O)c3ccc(Br)cc3)CC2)cc1

Another view of part of the listing above:
Molecule,Measles inh
O=C(Cc1ccccc1)Nc1sc2c(c1C(=O)Nc1cccc3ccccc13)CCC2,-0.96
Cc1nnc(NC(=O)c2ccco2)s1,0.57
O=C(O)CC(c1ccccc1)c1ccco1 (stereo not drawn),0.59
CC(C)c1ccc(C(Nc2ccccn2)c2ccc3cccnc3c2O)cc1 (stereo not drawn),-1.8

Continued:
Measles inh | molecule
-0.14 | Cc1ncc(CO)c2cc(C(=O)Nc3cccc(C(F)(F)F)c3)c(=N)oc12
0.47 | O=C(NCc1ccc(Cl)cc1)c1cccc(N2CCCC2=O)c1
1 | Cn1c(=O)[nH]c(=O)c2c1nc(SCC(O)CO)n2CC(N)=O (stereo not drawn)
0.15 | CCC(=O)N1c2ccc(S(=O)(=O)NCCc3ccc(OC)c(OC)c3)cc2CC1C (stereo not drawn)
-0.29 | COCCOC(=O)C1=C(C)N=C2SCCC(=O)N2C1c1ccc(OC)c(OC)c1 (stereo not drawn)
0.12 | Cc1[nH]c2ccccc2c1C=Cc1nc2ccccc2c(=O)n1CCO
0.04 | CC(=O)NS(=O)(=O)c1ccc(NC(=O)c2cc(-c3cccs3)nc3ccccc23)cc1
-0.74 | Cc1ccc(OCC(=O)Nc2ccc(C(=O)OC3CCCCC3)cc2)cc1C
1.5 | O=C(CSCC(=O)Nc1ccccc1-c1ccccc1)Nc1ccc2ccccc2c1
-1.1 | O=C(Nc1ccc(Cl)cc1)C1CCN(S(=O)(=O)c2ccc(Br)s2)CC1
0.23 | Cc1cc(C)n(C(=O)Cc2cccs2)n1
-0.6 | Cc1nnc(NC(=O)c2c(O)c3ccccc3[nH]c2=O)s1
1.6 | O=C(CS(=O)(=O)c1cn(Cc2cccc(F)c2)c2ccccc12)NC1CCCCC1
-0.92 | CN1CCN(CCCNC(=O)CCc2nc(-c3ccccc3F)no2)CC1
-0.06 | Cc1c(C(=O)N(C)C2CCCCC2)sc2nc(-c3ccccc3)cn12
-0.32 | CCOCCn1cnc2sc(C(=O)N3CCC(C(=O)OCC)CC3)c(C)c2c1=O
0.26 | Cc1cc2nn(-c3ccccc3)nc2cc1NC(=O)c1ccc([N+](=O)[O-])c(C)c1
-0.1 | CCN1CCN(CCN)CC1
1.4 | Cc1ccc(S(=O)(=O)NCc2ccc(C(=O)O)o2)c(C)c1C
-0.12 | COC(=O)c1c(NC(=O)CN2CCCCCC2)sc2c1CCC(C)C2 (stereo not drawn)

Measles inh | molecule
-0.37 | CC(C)CC(=O)Nc1ccc(-c2nc3cc(Cl)ccc3o2)cc1
0.42 | O=C(Nc1nc(-c2cc([N+](=O)[O-])cs2)cs1)c1ccccc1Oc1ccccc1
-0.65 | COc1ccc(NC(=O)Cn2ccc3ccccc3c2=O)cc1Cl
-0.67 | Cc1ccc(NC(=O)c2cc3cc(Br)ccc3oc2=O)cc1C
0.77 | COc1ccc(-c2csc(NC(=O)c3ccc(S(=O)(=O)N4CC(C)CC(C)C4)cc3)n2)cc1C (stereo not drawn)
0.66 | CN(C)CCn1c(=S)[nH]c2ccccc2c1=O
-0.8 | CN(C)C(=O)C1C2NC(=S)N(c3cccc(Br)c3)C1(C)Oc1ccccc12 (stereo not drawn)
-0.52 | CC(C)CCNC(=O)CCS(=O)(=O)c1cccc2nonc12
0.41 | CC1=NN(C(=O)c2ccccc2Cl)C(O)(c2ccccc2)C1 (stereo not drawn)
-0.81 | CCC1=Nc2cc(C(=O)NCCCN(C)Cc3ccccc3)ccc2Sc2ccc(C)cc21
-0.42 | O=[N+]([O-])c1cc(-n2ncnc2-c2cccc(Cl)c2)ccc1F
0 | CCOC(=O)C1(O)c2ccccc2NC(=O)N1C (stereo not drawn)
1.2 | COC(=O)C1=C(C)N(c2ccc(F)cc2)C(=O)C1
0.54 | c1ccc(C(OCCn2cncn2)c2ccccc2)cc1
-0.98 | N#CC1(C(=O)Nc2ccc([N+](=O)[O-])cc2)CC2c3ccccc3C1c1ccccc12 (stereo not drawn)
2.5 | CC=CCn1c(SCC(N)=O)nc2c1c(=O)[nH]c(=O)n2C
-0.03 | COc1ccc(C2=NN(C(C)=O)C(c3cc4ccc(C)cc4nc3Cl)C2)cc1OC (stereo not drawn)
-0.76 | COc1cccc(CNC(=O)C2CCCN(S(=O)(=O)N3CCC(C)CC3)C2)c1 (stereo not drawn)
-1.6 | Cn1cc(C(=O)NC2CCCC2)c(=O)c2cc(S(=O)(=O)N3CCOCC3)ccc21
-0.5 | Cc1ccc(OC(=O)c2ccc([N+](=O)[O-])cc2)c(-n2nc3ccccc3n2)c1

Measles inh | molecule
-0.61 | O=S(=O)(Nc1cccc(C(F)(F)F)c1)c1cccc2nsnc12
-1.1 | CCCCOc1nc(C)nc2c1sc1nc3c(cc12)COC(C)(C)C3
-0.04 | S=C(c1ccccc1)N1CCOCC1
-0.44 | COc1ccc(S(=O)(=O)N2CCN(c3ccc(Cl)cc3)CC2)cc1OC
-0.88 | c1cncc(CN2CCC(N3CCCCCC3)CC2)c1
-0.39 | Cc1[nH]c2c([N+](=O)[O-])cccc2c1-c1ccccc1
0.6 | NC(=O)c1c(NC(=O)c2cc([N+](=O)[O-])nn2Cc2ccccc2)sc2c1CCCC2
-0.24 | Cc1cc(=O)oc2c(N)c(O)ccc12
-0.31 | COc1ccc2c(c1)CCc1c(C(=O)Nc3ccc(C#N)cc3)noc1-2
-0.91 | O=C(NCc1ccccc1)C1C2C=CC3(CN(Cc4ccccc4)C(=O)C13)O2 (stereo not drawn)
-0.47 | CCOc1cc(C2Nc3ccc4ccccc4c3C3=C2C(=O)CC(c2ccccc2)C3)ccc1O (stereo not drawn)
-0.02 | COCCCNC(=O)C(C)C1Sc2ccccc2N(Cc2cc(C)ccc2C)C1=O (stereo not drawn)
-0.44 | O=[N+]([O-])c1ccc(Oc2cccc(O)c2)cc1
-0.02 | NC(=O)c1ccccc1NC(=O)C(Cc1ccccc1)N1C(=O)c2ccccc2C1=O (stereo not drawn)
-0.21 | CCOC(=O)c1sc(NC2=NS(=O)(=O)c3ccccc32)c(C(=O)OCC)c1C
-0.73 | COc1ccc(NC(=O)c2c(NCc3ccncc3)sc3c2CCCC3)c(OC)c1
0.32 | CC1=C(C(=O)Nc2ccc(C)cc2C)C(c2cccc(Br)c2)NC(=O)N1 (stereo not drawn)
0.45 | COc1cc(OC)cc(C(=O)N=c2sc3cc(S(C)(=O)=O)ccc3n2C)c1
0.86 | O=C1OC(NS(=O)(=O)c2ccc(Cl)cc2)c2ccccc21 (stereo not drawn)
0.14 | CCCCOc1ccc(N2C(=O)CC(N3CCCCC3)C2=O)cc1 (stereo not drawn)

By substructure, the entries above with a furan ring, fused or not (3)
Measles inh | molecule
0.57 | Cc1nnc(NC(=O)c2ccco2)s1
0.59 | O=C(O)CC(c1ccccc1)c1ccco1 (stereo not drawn)
1.4 | Cc1ccc(S(=O)(=O)NCc2ccc(C(=O)O)o2)c(C)c1C

Further structures follow.
Measles inh | molecule
-1.1 | Cc1ccccc1OCc1nc(C#N)c(NCc2ccc(F)cc2)o1
1.1 | CN(Cc1ccco1)C(=O)c1ccc(CNS(=O)(=O)c2ccc(Br)cc2)cc1
0.33 | CCCCNC(=O)c1ccc(CS(=O)(=O)Cc2ccccc2F)o1
1.6 | CCC(C)NC(=O)c1ccc(N2CCCC2=O)cc1 (stereo not drawn)
0.58 | O=c1c2ccccc2n(Cc2cccc([N+](=O)[O-])c2)c(=O)n1Cc1ccccc1Cl
0.47 | COc1cc2c(cc1OC)C(C(=O)Nc1cccc(C#N)c1)C1c3ccccc3CCN1C2=O (stereo not drawn)
-0.38 | Cc1ccc(N2COc3cc(C)c(Cl)c(C)c3C2)cc1
-0.47 | COc1cc(OC)cc(C(=O)Nc2cc(C(=O)Nc3ccccc3F)ccc2N2CC3CC(C2)c2cccc(=O)n2C3)c1 (stereo not drawn)
0.19 | CC1CN(CCC(=O)Nc2ccc(Cl)cc2)CC(C)O1 (stereo not drawn)
-0.25 | c1ccc(-c2cc(-c3nc(-c4ccccn4)no3)c3ccccc3n2)cc1
0.08 | COc1ccc(-n2nc3ccc(NC(=O)c4ccc(OC)c(OC)c4)cc3n2)cc1
0.85 | O=C(O)c1cc(-c2ccc(Cl)cc2)n[nH]1
-0.72 | Cc1cc2cc(CNS(C)(=O)=O)ccc2n1C
0.19 | O=C(Nc1nc(-c2ccccc2)cs1)c1ccccc1C(=O)OCc1ccc(Br)cc1
-1.1 | CCc1ccc(NS(=O)(=O)c2ccc3[nH]cc(C(=O)NC4CCC(C)CC4)c(=O)c3c2)cc1 (stereo not drawn)
-0.31 | CCOC(=O)C1C(=O)C=C(c2ccc(C)cc2)CC1c1cc(OC)ccc1OC (stereo not drawn)
1 | CCCC12CN3CC(CCC)(CN(C1)C3c1ccc(Br)cc1)C2=O (stereo not drawn)
0 | CCc1ccc(NC(=O)N(CCN2CCOCC2)C2CCN(C(C)=O)CC2)cc1
-1.6 | O=C(COc1ccc(Br)cc1)Nc1ccc2oc(-c3ccncc3)nc2c1
-0.48 | COc1ccc(-c2cc(=Nc3cccc(C(F)(F)F)c3)c3cc(O)ccc3o2)cc1
